CSC inhib = cancer stem cell viability inhibitors, primary screen, luminescence | inhibition, % at 7.5 µM | actives 1.1% (n = 300,000) | cancer stem cell-like cells viability;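 active = mean at 75% or more and at least half the replicates too; tested in HMLE shEcad cells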;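 note: 0% = median of negative and 100% = median of positive control wells; the first replicate is given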
Rce1 inh = yeast Rce1p protease inhibitors, primary screen, biochemical, fluorescence, cell-free homogeneous; CAAX prenyl protease 2 (Saccharomyces cerevisiae (strain ATCC 204508 / S288c)), Q03530; yeast membranes, quenched prenylated peptide cleavage fluorescence; calls only; actives 0.27% (n = 290,000);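 active = fall in fluorescence gain of 50% or more versus controls, with final raw signal at or below 3038400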;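 note: plate controls were neutral control wells for no effect and wells lacking membranes for full effect; tested at 10 µM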
Target sequence (Q03530 whole entry, looked up): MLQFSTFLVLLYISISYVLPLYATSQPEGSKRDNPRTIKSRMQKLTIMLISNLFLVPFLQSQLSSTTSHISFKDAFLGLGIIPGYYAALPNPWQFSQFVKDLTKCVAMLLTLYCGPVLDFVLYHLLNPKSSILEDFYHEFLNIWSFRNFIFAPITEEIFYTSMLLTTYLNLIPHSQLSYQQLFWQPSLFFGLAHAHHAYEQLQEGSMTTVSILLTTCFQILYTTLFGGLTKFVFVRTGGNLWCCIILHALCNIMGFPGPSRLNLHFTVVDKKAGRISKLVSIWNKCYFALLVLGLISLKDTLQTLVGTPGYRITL
eIF4H inh = human eIF4H binding inhibitors, primary screen, translation initiation inhibitor project, biochemical, uHTS, fluorescence polarization | eIF4H fluorescence polarization binding assay | actives 0.94% (n = 290,000) | inhibition, % at 35 µM;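 active = 50% or more with normal probe brightness, or confirmed in later tests; about a fifth of its hits are not listed in these tables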;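 note: calls also rest on retests at 20 µM and on dose response follow-up; 0% = protein and probe with vehicle and 100% = probe without protein; strong numbers were not always called active; many hits fall short of the cut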
HIV Env fusion = inhibitors of HIV-1 Env-driven cell-cell fusion, primary screen, HeLa-JRFL effector, CEM21 target cells, luciferase; AID 651610, 2012; inhibition, % at 12.3 µM; actives 1.1% (n = 360,000);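 active = mean replicate inhibition score of at least 50 and every replicate individually at or above 50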;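 note: 0% = plate neutral controls and 100% = maraviroc near 300 nM; one replicate is shown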
Yeast UUG start = modulators of yeast start codon fidelity, primary screen, whole organism, S. cerevisiae, single point, plate reader. actives 0.13% (n = 350,000). AID 602363, 2012. activity score, % at 18.7 µM. S. cerevisiae UUG-firefly luciferase reporter, luminescence/redox ratio;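 active = replicate mean at a twofold rise or more, about +100% in these data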;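 note: firefly luciferase made from a UUG start codon reports start codon fidelity; reporter light over untreated wells divided by growth signal over untreated wells; some hits fall short of that in this replicate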
PABP FP inh = PABP poly(A) RNA binding inhibitors, primary screen, biochemical, fluorescence polarization, uHTS; Polyadenylate-binding protein 1 (Homo sapiens), P11940; inhibition, % at 35 µM; actives 1% (n = 290,000); AID 2014, 2009;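 active = 50% or more with normal probe brightness, or confirmed in later tests; about a fifth of its hits are not listed in these tables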;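 note: calls also rest on retests at 20 µM and on dose response follow-up; controls were probe without protein and protein plus probe with vehicle; some compounds called inactive have numbers as strong as hits; many hits fall short of the cut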
Target sequence (P11940 whole entry, looked up): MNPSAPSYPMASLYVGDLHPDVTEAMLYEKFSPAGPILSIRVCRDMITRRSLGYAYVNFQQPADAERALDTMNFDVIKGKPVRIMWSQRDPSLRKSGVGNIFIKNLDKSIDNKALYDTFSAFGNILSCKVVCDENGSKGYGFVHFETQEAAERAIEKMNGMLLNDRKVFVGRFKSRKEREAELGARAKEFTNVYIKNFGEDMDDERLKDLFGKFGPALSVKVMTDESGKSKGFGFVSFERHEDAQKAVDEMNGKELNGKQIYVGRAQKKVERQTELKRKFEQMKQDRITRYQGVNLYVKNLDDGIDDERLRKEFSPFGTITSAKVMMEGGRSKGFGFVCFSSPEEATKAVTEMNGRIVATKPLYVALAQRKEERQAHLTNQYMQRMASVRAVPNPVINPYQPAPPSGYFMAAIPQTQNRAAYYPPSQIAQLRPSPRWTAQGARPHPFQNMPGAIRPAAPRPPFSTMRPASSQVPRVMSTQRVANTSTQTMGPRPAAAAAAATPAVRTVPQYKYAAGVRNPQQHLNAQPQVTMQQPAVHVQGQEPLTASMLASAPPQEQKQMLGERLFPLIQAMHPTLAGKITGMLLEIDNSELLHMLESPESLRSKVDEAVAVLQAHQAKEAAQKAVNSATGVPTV
MT1-MMP act inh = blockers of MT1-MMP proenzyme processing, primary screen, HT1080 RFP-PRO-GFP cells, GFP/RFP fluorescence; Matrix metalloproteinase-14 (Homo sapiens), P50281; GFP/RFP ratio fluorescence, overnight; percent of plate control window, DMSO zero; GFP/RFP ratio change, % at 20 µM; actives 0.061% (n = 360,000); AID 651647, 2012;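 active = GFP/RFP ratio change of at least 30% with cell ATP level not reduced by more than half and red fluorescence within 50% of control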; note: strong numbers were not always called active
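Assay system: RFP-PRO-GFP reporter HT1080 cells; read-out basis: GFP/RFP fluorescence ratio; benchmarks: DMSO wells and RFP-L50D-GFP cells; doses: 20 µM single dose, 1% DMSO; schedule: overnight cell settling, then overnight compound exposure, 37 °C, 5% CO2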
MT1-MMP act inh RFP = recorded beside MT1-MMP act inh, whose call it bears; RFP signal change, %; measured here: RFP expression control read;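 0 = vehicle wells; hits needed this value within 50% of zero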
Active calls of the source: *; i = inactive; . = not tested or not shown; + = active, no number; & = joins results of further samples.

compound | Yeast UUG start | HIV Env fusion | MT1-MMP act inh | PABP FP inh | CSC inhib | Rce1 inh | eIF4H inh | MT1-MMP act inh RFP
COc1ccccc1N1CCN(C(=O)CSc2ncccc2-c2nc3ccccc3[nH]2)CC1 | -22 | -8 | -6 | 3 | -1 | i | 7 | 4
CN(CC(=O)Nc1cccc(F)c1)C(=O)Cn1c(=O)oc2ccccc21 | 9 | 6 | 5 | . | -5 | . | . | 5
C=CCOc1ccc(/C=C/C(=O)OCC(=O)NCc2ccco2)cc1 | 3 | i | 3 | . | -7 | i | . | 4
CC(NC(=O)c1cccc(C(F)(F)F)c1)C1CCCO1 (stereo unspecified) | . | -28 | 1 | 5 | 1 | i | 2 | 2
CN1CCCN(C(=O)c2ccc(Br)cc2)CC1 | -10 | 10 | -3 | -7 | -17 | i | -9 | 3
NC(C(=O)O)C1CC(Cl)=NO1 (stereo unspecified) | . | . | . | 0 | -10 | i | -6 | .
Cc1cc(C(=O)N2CCCc3ccccc32)no1 | -9 | . | -1 | 4 | -8 | i | -9 | 2
COc1ccc(CN2CCN(C(=O)CCC(=O)Nc3nnc(CC(C)C)s3)CC2)cc1F | -11 | 0 | -4 | -3 | 9 | i | 6 | -22

Quoted at random: 7 records from the list
compound | Yeast UUG start | HIV Env fusion | MT1-MMP act inh | PABP FP inh | CSC inhib | Rce1 inh | eIF4H inh | MT1-MMP act inh RFP
C=CCOc1ccc(/C=C/C(=O)OCC(=O)NCc2ccco2)cc1 | 3 | i | 3 | . | -7 | i | . | 4
CN1CCCN(C(=O)c2ccc(Br)cc2)CC1 | -10 | 10 | -3 | -7 | -17 | i | -9 | 3
NC(C(=O)O)C1CC(Cl)=NO1 (stereo unspecified) | . | . | . | 0 | -10 | i | -6 | .
Cc1cc(C(=O)N2CCCc3ccccc32)no1 | -9 | . | -1 | 4 | -8 | i | -9 | 2
CC(NC(=O)c1cccc(C(F)(F)F)c1)C1CCCO1 (stereo unspecified) | . | -28 | 1 | 5 | 1 | i | 2 | 2
COc1ccc(CN2CCN(C(=O)CCC(=O)Nc3nnc(CC(C)C)s3)CC2)cc1F | -11 | 0 | -4 | -3 | 9 | i | 6 | -22
CN(CC(=O)Nc1cccc(F)c1)C(=O)Cn1c(=O)oc2ccccc21 | 9 | 6 | 5 | . | -5 | . | . | 5

Additional entries follow:
compound | Yeast UUG start | HIV Env fusion | MT1-MMP act inh | PABP FP inh | CSC inhib | Rce1 inh | eIF4H inh | MT1-MMP act inh RFP
CC1(C)CC(=O)CC(=NCC(=O)O)C1 | . | . | 1 | 6 | -9 | i | -9 | -1
Cc1cc(/C=N/n2cnnc2)c(C)n1-c1cccc(Cl)c1 | 10 | . | -1 | -8 | -3 | i | -7 | -2
CN(C(=O)COC(=O)c1cc2c(s1)CCCCC2)C1CCS(=O)(=O)C1 (stereo unspecified) | -11 | -7 | 1 | -3 | -3 | i | -8 | -1
CCNC(=S)N/N=C/c1cc(C)n(-c2ccc(Cl)cc2)c1C | . | -27 | 0 | -2 | . | i | 0 | 3
CC(=O)c1ccc(N(C(=O)CNC(=O)c2ccco2)C(C(=O)NC2CCCC2)c2cccnc2)cc1 (stereo unspecified) | 0 | 0 | 0 | 17 | -16 | i | 3 | 4
O=C(CSc1oc(-c2ccccc2)nc1S(=O)(=O)c1ccccc1)NCC1CCCO1 (stereo unspecified) | -8 | 14 | 1 | 11 | 13 | i | 13 | -3
Cc1cccc(NCC(=O)N/N=C\c2ccc[nH]2)c1 | -13 | -4 | -5 | -8 | . | i | 21 | -16
O=S(=O)(NCCCc1ccccc1)c1cccc2nsnc12 | . | -9 | 1 | 7 | 4 | i | -4 | 0
COc1ccc(N(C)S(=O)(=O)c2cccc(C(=O)Nc3nnc(C)s3)c2)cc1 | -45 | 3 | 3 | . | -8 | . | . | -3
COc1ccc(-c2csc(C(C)(O)c3ccccc3)n2)cc1OC (stereo unspecified) | -15 | -34 | -1 | . | . | . | . | -5
O=C(NCc1cc(C(F)(F)F)cc(C(F)(F)F)c1)C12CN(Cc3ccccc3)CC1C(c1cccc([N+](=O)[O-])c1)=NO2 (stereo unspecified) | -8 | . | -11 | -1 | 23 | i | 14 | -12
CCN1CCN(C(c2cccs2)C(C)NC(=O)C(C)C)CC1 (stereo unspecified) | -10 | -15 | -6 | 4 | 2 | i | -1 | 3
Cc1ccccc1C(=O)Nc1cccc(N)c1 | -7 | . | 1 | 2 | 7 | i | -5 | 3
Cc1nn2c([nH]c(=O)c3ccccc32)c1C=O | . | . | 6 | -4 | -6 | i | -10 | 7
CC(C)CNC(=O)COC(=O)c1ccc(Cl)c(S(=O)(=O)N2CCc3ccccc32)c1 | 10 | 6 | -2 | -3 | -21 | i | -6 | -2
CCN1C(=O)C2(SC(NC(C)=O)=NN2C(C)=O)c2cc(C)cc(C)c21 (stereo unspecified) | 9 | . | 2 | -4 | 1 | i | 20 | 4
CCC(=O)Nc1ccc(C(=O)NNC(=O)Cc2ccccc2)cc1 | . | -9 | -1 | -5 | 17 | i | -3 | 1
O=C(N/C(=C/c1cccs1)C(=O)N1CCCCCC1)c1ccccc1 | -2 | 19 | 5 | 4 | 13 | i | -2 | 3
Cc1ccc(C)c(CNS(=O)(=O)c2c(C(=O)N3CCCC3)c(C)n(C)c2C)c1 | 15 | 0 | -4 | 9 | 13 | i | 3 | 0
O=C(CN1CCCC1c1cccs1)N1CCN(S(=O)(=O)c2cccc(F)c2)CC1 (stereo unspecified) | -34 | -1 | -3 | . | . | . | . | 1
CC(NC(=O)c1ccncc1)c1ccc(Cl)cc1Cl (stereo unspecified) | -18 | 3 | 0 | 9 | -17 | i | 0 | -7
CC1CC(C)CN(S(=O)(=O)c2ccc3c(c2)oc(=O)n3CC(=O)NCc2cccnc2)C1 (stereo unspecified) | . | 7 | -4 | 1 | . | i | -4 | -12
O=C(C1CCN(S(=O)(=O)c2cccc3cccnc23)CC1)N1CCN(c2ccc(Cl)cc2)CC1 | -20 | 40 | 2 | 7 | -10 | i | -12 | -28
O=C1CCc2cc(S(=O)(=O)NC(Cc3ccccc3)C(=O)NCC3CCCO3)ccc2N1 (stereo unspecified) | 0 | -1 | -6 | -3 | 4 | i | -1 | -1
CC(C)NC(=O)c1cc2cc([N+](=O)[O-])ccc2s1 | -19 | . | 4 | -3 | 2 | i | -6 | -6
CCOc1ccc(CCNC(=O)Nc2cccc(OC)c2)cc1OCC | -9 | 20 | 1 | 5 | 2 | i | -3 | 1
CC1(C)Cc2c(cnn2-c2ccccc2)C(=O)/C1=N\NC(=O)c1ccccc1N | . | . | 11 | -11 | 14 | i | 5 | 4
Cn1nc(C(C)(C)C)cc1C(=O)NN1CCOCC1 | -16 | 12 | -3 | 7 | -5 | i | -9 | 1
OC(CCCN1CCCCC1)(c1ccccc1)c1ccc(C(F)(F)F)cc1 (stereo unspecified) | 3 | 8 | 3 | . | . | . | . | 0
CS(=O)(=O)Nc1ccc(C(=O)N2CCCCC2)cc1 | -3 | . | 1 | 4 | -7 | i | -13 | 1
COC(=O)C1CCN(CCCOc2ccc(CN3CCN(c4ccc([N+](=O)[O-])cc4)CC3)cc2)CC1 | -9 | 0 | 6 | 11 | 9 | i | -16 | -9
CCCNC(=O)NC(=O)CN1CCCC1c1ccc2c(c1)OCCO2 (stereo unspecified) | -8 | 2 | 1 | -2 | 12 | i | 2 | 3
CCC(=O)N(C)CCc1cc2c(c(OC)c1/C=N/NS(=O)(=O)c1ccc(C)cc1)OCO2 | -1 | -11 | -3 | 3 | -21 | i | -5 | -3
Cc1ccc(C(CNS(=O)(=O)c2ccc([N+](=O)[O-])cc2)N2CCN(C)CC2)cc1 (stereo unspecified) | -8 | -6 | 0 | . | 28 | i | . | -2
Cc1cccc(CCNS(=O)(=O)c2ccc(S(=O)(=O)N3CCCCC3)cc2)c1 | -12 | . | 1 | -10 | 10 | i | -4 | -1
Cc1cccc(OCCCC(=O)Nc2nccs2)c1 | -19 | . | 3 | 1 | 4 | i | -7 | -7
O=C(CNC(=O)c1cnccc1C(F)(F)F)c1cccc(Cl)c1 | -13 | -8 | 1 | 12 | -6 | i | -6 | 4
Cc1ccnc2nc(C(=O)OCC(=O)Nc3ccc([N+](=O)[O-])cc3Br)nn12 | -15 | -2 | -1 | . | . | . | . | -4
OCC1(CCOc2ccccc2)CCN(CCCn2cccn2)CC1 | 1 | -4 | 1 | 11 | -6 | i | -14 | 5
O=C(c1ccc(OC2CCN(Cc3ccccn3)CC2)cc1)N1CCCC(O)C1 (stereo unspecified) | . | 3 | -5 | -5 | -4 | i | 0 | -4

Overlap with the part before: 2 entries, then new ones.
compound | Yeast UUG start | HIV Env fusion | MT1-MMP act inh | PABP FP inh | CSC inhib | Rce1 inh | eIF4H inh | MT1-MMP act inh RFP
OCC1(CCOc2ccccc2)CCN(CCCn2cccn2)CC1 | 1 | -4 | 1 | 11 | -6 | i | -14 | 5
O=C(c1ccc(OC2CCN(Cc3ccccn3)CC2)cc1)N1CCCC(O)C1 (stereo unspecified) | . | 3 | -5 | -5 | -4 | i | 0 | -4
O=S(=O)(c1cccc(S(=O)(=O)N2CCC(Cc3ccccc3)CC2)c1)N1CCOCC1 | -3 | -308 | -1 | -4 | 13 | i | 4 | -5
NNc1ccc([N+](=O)[O-])c2[nH][nH]c(=O)c12 | -23 | 6 | 19 | . | . | . | . | -1
CCc1noc(C)c1C(=O)N1CCCSC1=Nc1ccccc1 | -16 | 1 | 3 | . | -2 | i | . | 2
C=C(C)C(=O)Nc1ccc(NC(C)C)cc1 | -16 | 8 | -1 | 8 | 5 | i | 8 | -1
CCOc1ccc(C(=O)COC(=O)c2cc(=O)[nH]c3ccccc23)cc1 | . | 0 | 2 | . | -8 | i | . | 0
CN1CCN(c2ccc(S(=O)(=O)N3CCCCC3)cc2NC(=O)COc2ccc([N+](=O)[O-])cc2)CC1 | -28 | -4 | -1 | . | 10 | i | . | 2
O=[N+]([O-])c1ccc(N/N=C/c2c[nH]c3ccccc23)cc1 | -12 | -295 | -106 | -5 | 96* | i | 5 | 0
COc1ccccc1/C=C/CN1CCC(n2nccc2NC(=O)CCc2ccccc2)CC1 | 20 | 10 | 6 | -5 | 2 | i | -9 | -9
Cc1sc(N2C(=O)C3C(C2=O)[C@H]2C=C[C@@H]3C2)c(C#N)c1C (stereo partly specified) | . | -4 | 1 | -7 | 0 | i | 1 | 2
CCOC(=O)c1csc(NC(=O)c2ccc(OCC)cc2)n1 | . | -10 | -31 | 2 | 2 | i | -1 | -42
COc1ccc(C(=O)Nc2ccccc2C(=O)N2CCOCC2)cc1 | -6 | 4 | 0 | 6 | -4 | i | -5 | 2
COc1cccc(CNC(=O)C2CCN(C(=O)N3CC(C)Oc4ccccc43)CC2)c1 (stereo unspecified) | -4 | 3 | 2 | 0 | -3 | i | 1 | -2
CCCCCCCCNC(C)C(O)c1ccc(SC(C)C)cc1 (stereo unspecified) | 12&1 | -6 | -15 | -7 | 102* | + | -1 | -19
COCCN(C(=O)COc1ccccc1)c1nnc(-c2cccnc2)s1 | -20 | 13 | -2 | 3 | -18 | i | -6 | 1
CCOC(=O)C1CCN(C2CC(=O)N(c3cccc(Cl)c3)C2=O)CC1 (stereo unspecified) | -24 | . | 4 | 5 | -13 | i | 1 | 6
COc1cc(CCC(=O)OCc2ccccc2C#N)cc(OC)c1OC | -13 | -5 | 0 | 5 | -7 | . | -6 | 1
N#Cc1cnn(-c2ccccc2)c1N | -9 | . | 10 | -3 | -4 | i | 0 | -1
